# Screens (PubChem)
# Beta2AR agonist = human beta-2 adrenergic receptor agonism by FAP; P07550; Am2.2-beta2AR cells, FAP receptor internalization, flow cytometry; reference of the scale not given here; response, % (test concentration not listed); actives 0.43% (n = 340,000); AID 504454;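 active = response above a set limit, near 3 SD of response in nonfluorescent compounds, cut at about 42% in these data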;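 also: stock transfer was 100 nL into about 11 µL; a reference agonist was the positive control; negative values mostly stem from fluorescent compounds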
# UCH37 DUB inh = human UCH37 deubiquitinating enzyme inhibition | Q9Y5K5 | purified proteasome/UCH37, Ub-AMC cleavage fluorescence | inhibition, % (concentration not given with the values) | actives 0.33% (n = 330,000) | AID 588478;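 active = mean of two replicates above 20%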;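 also: 0% = compound-free wells with enzyme and 100% = wells lacking proteasome; stock transfer was 100 nL into about 20 µL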
#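 Material: human UCH37 enzyme supplied as purified proteasome complex / Amount: 0.15 nM proteasome as dispensed / Buffer or medium: pH 7.4 Tris-HCl (50 mM) with ovalbumin, ATP-MgCl2, DTT / Times: preincubation 30 min, reaction 25 min, room temperature / Technique: AMC fluorescence from Ub-AMC cleavage, excitation 355 nm, emission 460 nm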
# Bfl-1 A1 inh = inhibitors of the anti-apoptotic protein A1, read as caspase activation. MEF A1-2A-BIM cells, Caspase-Glo 3/7 luminescence, 3 h; percent of clofoctol response, vehicle zero. actives 0.066% (n = 330,000). caspase activation, % (test concentration not listed). AID 2462;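 active = over half of replicate activation scores above 10%, or exactly half above 10 with the replicate mean above 10; inconclusive = replicate mean below 10 yet half the replicates above 10; inactive = over half of replicates below 10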;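 also: wells of about 30 µL received 50 nL stock; many hits fall short of the cut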
# Calb FLC = affects C. albicans growth with fluconazole. AID 1979. growth inhibition, % (concentration not given with the values). actives 0.57% (n = 300,000). C. albicans CaCi-2 (fluconazole-resistant clinical isolate) + fluconazole, Alamar Blue growth, 48 h;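 active = most replicates above 75%; inconclusive = exactly half above 75%; inactive = most below 75%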;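 also: all wells also contain fluconazole at 8 µg/ml as a sub-toxic cotreatment; 0% = median of DMSO wells and 100% = median of geldanamycin control wells; wells of about 8 µL received 7.5 nL stock; the first replicate is given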
# RanGTP-Impb inh = disruptors of Ran-importin-beta complex formation – biochemical, FRET, CFP-Ran, YFP-importin-beta, homogeneous, primary screen. inhibition, % (test concentration not listed). actives 1.1% (n = 300,000). cell-free CFP-Ran/YFP-importin-beta FRET ratio;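 active = most replicates above 15%; inconclusive = exactly half above 15%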;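 also: 0% = DMSO wells and 100% = Ran loaded with GDP instead of GTP; wells of about 40 µL received 100 nL stock; the first replicate is given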
# LANA-H2B inh = blocks KSHV LANA binding to histone H2A/H2B; actives 0.6% (n = 320,000); AID 2629; inhibition, % (no concentration beside the values); cell-free LANA-H2A/H2B peptide, fluorescence polarization; in the data active = inhibition mostly above about 10%, no sharp cut-off; inactive = mostly below about 6.7%;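 also: stock transfer was 7.5 nL into about 10 µL; 0% = median of vehicle wells and 100% = median of positive control wells; one replicate is shown; the record names a cut of 25% in any replicate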
# Target sequence (Q9QR71 whole entry, looked up): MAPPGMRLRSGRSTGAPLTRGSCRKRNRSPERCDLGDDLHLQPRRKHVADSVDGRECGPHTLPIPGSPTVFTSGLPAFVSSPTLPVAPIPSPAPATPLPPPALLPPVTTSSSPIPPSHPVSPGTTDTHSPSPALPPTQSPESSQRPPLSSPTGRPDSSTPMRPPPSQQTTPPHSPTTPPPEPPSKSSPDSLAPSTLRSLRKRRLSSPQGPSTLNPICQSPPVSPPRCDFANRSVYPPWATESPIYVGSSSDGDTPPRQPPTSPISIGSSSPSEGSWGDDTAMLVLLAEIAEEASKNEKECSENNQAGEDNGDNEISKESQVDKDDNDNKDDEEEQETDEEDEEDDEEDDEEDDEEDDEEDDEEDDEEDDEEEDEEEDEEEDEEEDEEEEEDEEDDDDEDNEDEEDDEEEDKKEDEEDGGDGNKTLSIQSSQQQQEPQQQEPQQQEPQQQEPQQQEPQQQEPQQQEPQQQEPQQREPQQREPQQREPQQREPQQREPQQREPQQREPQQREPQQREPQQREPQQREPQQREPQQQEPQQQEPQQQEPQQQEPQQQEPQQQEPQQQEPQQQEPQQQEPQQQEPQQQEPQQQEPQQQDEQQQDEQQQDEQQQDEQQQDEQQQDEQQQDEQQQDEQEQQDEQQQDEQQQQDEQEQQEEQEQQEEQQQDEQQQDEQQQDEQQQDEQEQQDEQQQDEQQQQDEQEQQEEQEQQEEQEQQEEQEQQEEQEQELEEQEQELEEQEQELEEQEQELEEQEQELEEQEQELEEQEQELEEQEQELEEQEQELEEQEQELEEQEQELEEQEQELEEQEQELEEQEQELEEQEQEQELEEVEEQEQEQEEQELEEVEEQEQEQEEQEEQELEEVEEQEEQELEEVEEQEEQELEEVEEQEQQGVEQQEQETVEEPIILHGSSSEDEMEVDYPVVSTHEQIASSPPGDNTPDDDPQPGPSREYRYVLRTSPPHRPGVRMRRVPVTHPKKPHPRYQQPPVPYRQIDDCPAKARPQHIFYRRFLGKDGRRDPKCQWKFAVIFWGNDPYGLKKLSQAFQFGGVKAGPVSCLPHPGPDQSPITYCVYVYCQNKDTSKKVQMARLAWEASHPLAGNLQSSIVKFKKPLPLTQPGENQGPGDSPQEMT
# Beta cell apopt = blocks beta cell apoptosis; INS-1E cytokine-induced death, ATP luminescence, 48 h; percent of positive-control rescue, neutral wells zero; protection from apoptosis, % (concentration not given with the values); actives 0.8% (n = 300,000); AID 435005;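 active = all replicates at 75% or more, or half of them and the mean; inconclusive = half reach 75% but not the mean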;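 also: 0% = cytokine-treated negative control wells and 100% = positive control rescue; higher means more ATP so stronger rescue from cytokine killing; wells of about 40 µL received 100 nL stock; the first replicate is given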
# T cruzi repl = blocks replication of Trypanosoma cruzi; actives 1.4% (n = 300,000); inhibition, % (no concentration beside the values); T. cruzi beta-gal in NIH3T3, luminescence, 90 h; AID 1885;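 active = mean inhibition across valid replicates above about 55%, limit read from the data; inconclusive = mean below that limit but half or more replicates reach it; inactive = mean below it, under half of replicates reach it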;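 also: signal also drops with host cell toxicity which is not excluded here; 0% = plate median of DMSO wells and 100% = zero luminescence signal; higher percent means less beta-gal luminescence so fewer parasites; stock transfer was 50 nL into about 50 µL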
# * = called active by the depositor; u = inconclusive; x = no result given.
SMILES,Beta2AR agonist,UCH37 DUB inh,Bfl-1 A1 inh,Calb FLC,RanGTP-Impb inh,LANA-H2B inh,Beta cell apopt,T cruzi repl
O=C(CNc1ccc(F)cc1)N/N=C1\CCc2ccccc21,-1.9,x,0.4,-7.5,5.1,2.4,-1.1,-15.7
O=C(C1CCC1)N1CCN(c2ccnc3cc(Cl)ccc23)CC1,-6.9,2.2,0.6,0.8,-2.1,1.9,6.5,14.9
O=C(COC(=O)C1CC1)Nc1ccc(OC(F)F)cc1,-2.5,3.0,1.1,-6.8,3.7,2.0,2.2,-3.8
CNC(=O)NC(=O)COC(=O)c1cccc(S(=O)(=O)N2CC3(C)CC2CC(C)(C)C3)c1 (stereo unspecified),-1.1,2.0,-0.3,2.2,-2.2,-6.8,-0.2,9.6
C=CCN(c1ccccc1)S(=O)(=O)c1cccc(C(=O)O)c1,3.9,3.6,2.8,-13.4,0.4,-3.2,-4.4,-6.6
O=C(Cn1nnc2ccccc2c1=O)NC1CCCc2ccccc21 (stereo unspecified),-4.3,1.5,1.0,10.4,u,-0.6,-0.9,-10.1
Cc1ccc(C)c(S(=O)(=O)N2CCN(C(=O)c3cccn3C)CC2)c1,-3.0,0.5,0.0,12.3,3.4,-1.7,x,5.2
COc1ccc(N2CCN(C(=O)CCN3C(=S)NC(C)(C)CC3C)CC2)cc1 (stereo unspecified),2.8,-2.4,-0.4,-0.9,-0.2,-0.6,0.0,-7.0
Cc1cc(C(=O)N2CCCC(Nc3ccc(F)cc3)C2)c(C)o1 (stereo unspecified),3.7,0.9,-0.6,11.0,5.5,-1.1,3.6,-10.3
COc1cc(OC)cc(-c2c(-c3cccs3)c3cc(-c4ccc(OC)c(F)c4)ccc3n2C)c1,0.7,6.8,0.5,x,x,-2.3,3.6,x
CC(C)(C)OC(=O)NCCCC[C@@H](C(=O)N1CCN(C(=O)OC(C)(C)C)CC1)n1cc(C(CO)NC(=O)OC(C)(C)C)nn1 (stereo partly specified),2.8,3.9,0.2,-4.5,-1.9,0.0,1.2,10.1
Cc1cc(=O)c2ccc(C(F)(F)F)cc2[nH]1,3.2,6.5,0.2,5.0,u,0.4,-4.7,-2.7
O=C(CSc1nccc(=O)[nH]1)Nc1cc(C(F)(F)F)ccc1N1CCOCC1,2.9,3.4,0.9,-19.1,3.1,-0.5,-1.5,-10.6
Cc1ccc(CN(C(=O)c2sc3ccccc3c2Cl)C2CCS(=O)(=O)C2)cc1 (stereo unspecified),-23.7,5.0,-0.4,9.2,-2.2,2.7,1.9,17.2
CCC(CO)Oc1cc(NC(=O)c2ccccc2Cl)c2ncn(C(C)C)c2c1 (stereo unspecified),-12.8,0.1,1.2,x,x,-2.9,3.9,x
Cc1cccc(N2C(=O)C(Cl)=C(Nc3c(C)n(C)n(-c4ccccc4)c3=O)C2=O)c1C,10.9,4.2,1.0,2.2,1.7,5.3,-9.5,-8.8
CCOc1ccc(C2=CS/C(=C(\C#N)c3nnc4n3CCCCC4)N2CC)cc1,7.4,12.7,0.4,3.9,-1.5,0.7,-8.4,-5.1
C(=N\Nc1nnnn1-c1ccccc1)/c1ccncc1,8.8,x,1.5,6.0,-1.2,1.3,x,-2.5
CCN(CC)S(=O)(=O)c1cccc(C(=O)NC2=NCCS2)c1,-0.5,2.8,0.5,-9.0,-1.2,-1.6,x,1.5
CC1(C)CC(=O)C2=C(C1)NC(SCC(=O)Nc1ccccc1)=C(C#N)C2c1ccco1 (stereo unspecified),-1.0,x,-1.2,1.8,-0.9,-1.0,-14.0,8.1
CCC(=O)n1nc(-c2cccnc2)nc1NCc1cccs1,-3.0,2.3,-0.2,5.9,3.6,-2.1,-1.4,-22.2
N#C/C(=C\C1CC=CCC1)c1nc2ccccc2[nH]1 (stereo unspecified),-4.7,-8.4,0.1,-13.6,9.8,5.3,50.2,5.5
Cc1cccc(NC(=S)N/N=C/c2c[nH]c3ccccc23)c1,12.0,x,-1.5,5.3,-3.6,-4.4,19.4,10.5
O=C(OCC(=O)N1CCCC1)c1ccccc1OCc1ccccc1,3.0,-8.1,0.6,2.0,3.1,0.9,-1.1,-5.8
CC(OC(=O)Cc1cccc(C(F)(F)F)c1)C(=O)Nc1ccc(Cl)cn1 (stereo unspecified),-7.0,-0.5,0.8,6.3,3.9,-3.9,0.5,-3.8

# Remaining list, next part.
SMILES,Beta2AR agonist,UCH37 DUB inh,Bfl-1 A1 inh,Calb FLC,RanGTP-Impb inh,LANA-H2B inh,Beta cell apopt,T cruzi repl
Cc1cccc(N2CC(C(=O)Nc3nc4ccc(S(C)(=O)=O)cc4s3)CC2=O)c1C (stereo unspecified),9.7,0.0,0.0,3.1,-2.3,0.1,-13.8,1.1
COc1ccc(C(=O)COC(=O)CNC(=O)C2CCCCC2)c(OC)c1,-7.7,2.5,0.6,3.6,9.4,0.0,-1.1,-9.6
COc1ccc(C(C)=O)cc1CSc1nnc(Nc2ccc(C)cc2)s1,2.7,3.6,0.4,6.7,-0.5,-7.5,3.0,23.1
COc1ccc(S(=O)(=O)N(CC(C)C)CC(C)C)c2cccnc12,-2.7,3.4,x,0.3,3.1,x,x,-4.2
CCC(=O)N1CCN(CCN=CC2=C(O)CC(C)(C)CC2=O)CC1,3.4,3.8,0.2,-7.5,2.4,-1.2,-6.3,-22.3
O=C(CC1C(=O)NCCN1CC1CCCCC1)NCc1cccc(F)c1F (stereo unspecified),2.5,-2.1,0.0,-19.7,2.3,2.3,-11.3,13.0
O=C1CC(N2CCN(c3ccccn3)CC2)C(=O)N1c1ccc(Cl)cc1 (stereo unspecified),-3.6,5.4,0.2,-4.9,-2.7,-2.9,-4.7,-9.3
COc1cc(CN(C(=S)NCC(=O)O)C2CCCC2)cc(OC)c1OC,0.4,4.7,0.2,-6.3,-0.9,5.4,-0.5,-4.9
COc1ccccc1CNC(=O)COC(=O)c1ccc(C(=O)c2ccccc2)cc1,0.7,-2.3,1.5,x,x,-5.7,2.2,x
Cc1c2n(c3ccccc13)CCC2=O,-0.6,-138.9,-0.2,0.6,3.4,-4.1,x,1.4
CCOC(=O)c1cnc2c(OC)cccc2c1Nc1ccc2c(c1)OCCO2,-10.9,2.8,0.8,-8.0,6.6,-1.7,9.9,9.7
COc1ccc(/C=C(/NC(=O)c2ccco2)C(=O)N2CCCCCC2)cc1OC,1.4,3.5,0.5,-1.0,-4.3,5.6,-2.1,-5.1
CC(=O)Nc1ccc2oc(C)nc2c1,-3.4,2.4,1.3,-3.8,-1.9,5.0,-1.7,-0.7
CCN(CC(=O)NC1CCS(=O)(=O)C1)C(=O)c1cc(OC)c(OC)c(OC)c1 (stereo unspecified),-2.1,-0.2,-0.2,x,x,-1.7,-1.4,x
Cc1cccc(NC(=O)CSc2nnc(-c3ccco3)o2)c1,-0.6,0.6,0.5,-3.8,3.5,-0.6,-1.4,-12.9
COc1ccc(C(=O)NNC(=O)CSc2nnc(-c3cccnc3)n2C)cc1,1.0,-0.7,0.1,2.5,-3.1,0.1,-1.7,-2.3
O=C(CCCCn1c(=O)c2ccccc2n(Cc2ccccc2F)c1=O)NC1CCN(Cc2ccccc2)CC1,21.5,5.9,-0.4,-5.4,-0.6,-3.8,-2.8,51.6
O=C(CNC(=O)c1ccccc1F)N/N=C/c1cc(Br)ccc1OCc1ccccc1,12.4,x,-0.4,13.7,3.9,2.4,6.1,18.2
Cc1oc(CC(C)C)cc1C(=O)Nc1cccc2ccccc12,42.7*,x,-0.6,19.1,-0.6,-3.5,-3.8,-31.7
C/C(=N\NC(=O)c1ccc(CN2CCc3ccccc3C2)cc1)c1ccccc1O,5.4,x,u,-0.8,-0.3,-3.6,28.5,64.4*
COc1cc(/C=C/C(=O)O)cc(S(=O)(=O)NC2CCCC2)c1OC,-0.6,-4.3,-0.1,-11.2,-2.8,1.0,-6.1,19.1
Cc1ccc(NC(=O)c2ccc(CSc3ccccn3)cc2)cc1,4.7,-1.5,-0.5,-0.6,7.2,4.3,0.7,11.2
Brc1ccc(-c2nnc(-c3ccccc3Br)o2)cc1,4.0,2.5,-5.3,-3.4,3.1,-2.3,-1.1,14.9
Cc1ccc(C(=O)Nc2cccc(C(=O)O)c2)cc1S(=O)(=O)N1CCOCC1,1.8,2.9,-6.7,-18.1,0.7,-0.5,3.9,-16.2
C=CCN(Cc1ccc(Cl)s1)C(=O)c1cc(S(=O)(=O)N2CCOCC2)ccc1F,-1.8,3.5,0.7,x,x,3.3,-2.1,x

# Look-ups from the list:
# O=C(CNC(=O)c1ccccc1F)N/N=C/c1cc(Br)ccc1OCc1ccccc1 in Beta cell apopt is listed with 6.1
# COc1cc(CN(C(=S)NCC(=O)O)C2CCCC2)cc(OC)c1OC in Beta2AR agonist is listed with 0.4

# Continued.
SMILES,Beta2AR agonist,UCH37 DUB inh,Bfl-1 A1 inh,Calb FLC,RanGTP-Impb inh,LANA-H2B inh,Beta cell apopt,T cruzi repl
Cc1ccc(C)c(NC(=O)COC(=O)Cn2c(C)csc2=O)c1,13.2,3.0,-0.3,-4.7,5.2,-0.1,-6.6,0.2
CCOc1cc(CNn2cn[nH]c2=S)cc(Cl)c1OCc1ccccc1F,11.7,-1.1,0.6,-22.0,3.7,2.2,-9.7,2.3
CCOC(=O)c1cc(C)n(-c2c(C)n(C)n(-c3ccccc3)c2=O)c1C,2.2,4.4,0.0,-3.8,2.7,-0.7,-1.9,-11.5
COc1ccc(-c2nc(-c3cccnc3)no2)cc1,0.0,1.7,-8.1,-5.0,-1.0,3.8,x,-9.1
CN1CCN(C(=O)C2=C[C@@H](c3coc4ccccc4c3=O)C[C@@H](OCCCCO)O2)CC1,-4.7,1.0,0.1,-4.7,4.7,3.8,-3.3,-19.3
Cc1ccc(NS(=O)(=O)c2ccc(-c3csc(C)n3)s2)c(C)c1,1.0,2.5,-0.2,14.5,9.8,-1.6,2.8,4.2
COc1ccc(NS(=O)(=O)c2ccc(NC(=O)c3ccccn3)cc2)cc1,-0.6,-0.8,-0.2,x,x,-3.1,8.8,x
COc1ccc(S(=O)(=O)N2CCN(C(=O)c3ccco3)CC2)c(C)c1C,-1.3,-0.6,-0.9,3.4,-0.2,-0.1,-3.9,5.2
CCN(C(=O)COc1ncnc2ccc(Br)cc12)C1CCS(=O)(=O)C1 (stereo unspecified),-4.4,4.0,-0.3,u,-0.4,-2.1,-7.4,-1.8
N#Cc1nc(COc2ccc(F)cc2)oc1NCCN1CCOCC1,-1.9,2.5,-0.3,-1.5,-0.9,5.1,-2.6,19.8
CNc1ccc(Br)cc(C(=O)/C=C/c2cc(OC)ccc2OC)c1=O,9.7,6.6,0.1,-3.3,-6.6,1.2,-8.3,-6.1
COc1ccc(-c2nnc(SCC(=O)NCCC(C)C)nc2-c2ccc(OC)c(OC)c2)cc1OC,-5.3,8.1,1.0,-6.2,-1.6,-0.6,0.9,22.8
CC(C)Nc1nc(NC(C)C)nc(N(C#N)CCOc2ccc(Cl)cc2Cl)n1,1.2,1.5,0.5,-6.2,6.4,1.9,25.7,73.4*
O=C(c1ccncc1)N(c1ccc2oc3c(c2c1)CCCC3)S(=O)(=O)c1ccc(F)cc1,-6.3,5.0,-0.2,10.1,u,1.5,2.4,9.3
